MgrA DNA FP – S. aureus MgrA activity modulators, primary screen, biochemical, S. aureus Newman, fluorescence polarization; MgrA-DNA binding; inhibition, %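 (about 10 µg/mL by stock and volumes)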; actives 0.13% (n = 84,000); AID 602314, 2012;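 active = above 50% in either of two replicates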;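 also: 0% = protein plus DNA without compound and 100% = DNA alone without protein; higher means less MgrA bound to DNA so lower polarization; one replicate is shown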
S aureus helic – inhibitors of S. aureus replicative helicase, primary screen, biochemical, fluorescence unwinding readout; replicative DNA helicase (DnaC/DnaB), Staphylococcus aureus; purified S. aureus helicase, fluorescence unwinding assay; about half of the hits fall short of the stated cut; inhibition, %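 (tested at about 80 µM)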; actives 0.05% (n = 120,000);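 active = both duplicates at 50% or more, or one of them with a favoured structure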;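 also: 0% = mean of negative control wells and 100% = mean of positive control wells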
Starred values were filed as active, the others as inactive; . = no result given.

SMILES	MgrA DNA FP	S aureus helic
N/C(CC(=O)Nc1cccc(C(F)(F)F)c1)=N/O	1.2	10
Cn1ccnc1CSc1ncccc1C(=O)O	.	-1
COC(OC)c1nc(SCc2ccc(Cl)cc2)ncc1C(=O)O	4.0	.
CCOc1ccccc1Nc1nc(N)nc(CN(C)C2CCCCC2)n1	19	4
CCO[C@@H]1O[C@H](C(COCc2ccccc2)OCc2ccccc2)[C@@H](OCc2ccccc2)C1O (stereo partly drawn)	-0.2	.
c1ccc(CCSc2nnc(-c3cccs3)o2)cc1	.	7
CCOC(=O)c1c(-c2ccc(C)cc2)csc1/N=C/c1c(C)[nH]n(-c2ccccc2)c1=O	3.9	.
CCOC(=O)/C=C/c1ccc(-c2ccc(F)cc2)o1	-0.2	-20
CN(C)c1ccc(C(CNC(=O)C2CCCCC2)N2CCOCC2)cc1 (stereo not drawn)	.	2
O=C(/C=C/c1ccc(-c2cccs2)s1)Oc1ccc(Cl)cc1	0.8	.
CC(C)NC(=S)N1CCN(C/C=C/c2ccccc2)CC1	0.6	-2
Cc1ccc(/C=C/C(=O)Oc2ccc(-c3ccc(C#N)cc3)cc2)o1	.	5
O=C(NCc1ccco1)c1cccc2c1C(=O)N(Cc1cccnc1)C2	-1.1	14
O=C(Nc1nc(-c2ccc(I)cc2)cs1)c1sc2ccccc2c1Cl	-2.5	.
CC(C)N(Cc1ccc(N(C)C)cc1)S(=O)(=O)c1ccccc1[N+](=O)[O-]	-0.6	.
COC(=O)c1ccc(Br)o1	-1.4	.
COc1ccc(C2C3=C(CC(C)(C)CC3=O)Nc3nc(SCCN4CCOCC4)[nH]c(=O)c32)cc1OC (stereo not drawn)	.	37
CC(C)(C)c1ccc(Oc2ccc(N)cn2)cc1	-5.0	.
CCC(Sc1nc2ncnc(N)c2[nH]1)C(=O)O (stereo not drawn)	.	-23
CN(C)CCNC(=O)c1ccc2c(c1)N(Cc1ccccc1)C(=O)CS2	-0.2	5
CCOc1ccccc1NC(=O)c1ccc(OCC(=O)N2CCOCC2)c(OC)c1	.	-5
C(=NN1CCN(C2c3ccccc3-c3ccccc32)CC1)c1ccncc1	1.0	6
O=C(N/N=C/c1cccc(C(F)(F)F)c1)c1ccccn1	.	-5
COc1ccc(CNc2ncc(C#N)cn2)cc1	-1.9	.
N=c1oc2cc(O)ccc2cc1C(=O)Nc1cccc(C(F)(F)F)c1	0.8	-24
Nn1c(CO)nc2ccccc21	0.2	-14
Cc1cccc(C)c1NC(=O)C1(N(Cc2ccco2)C(=O)Cc2nc(N)n[nH]2)CCCCC1	2.9	2
COC(=O)c1sccc1NS(=O)(=O)c1ccc(F)cc1F	3.5	.
CCOC(=O)CCN1N=C(c2ccc(CC)cc2)CCC1=O	4.0	13
O=C1c2ccccc2C(=O)N1CCSc1ncnc2sc3c(c12)CCCC3	3.1	.
CC1CN(C(=O)CCC(=O)N2CCC(C(N)=O)CC2)c2ccccc2O1 (stereo not drawn)	0.9	8
Cc1cc(S(N)(=O)=O)ccc1OCC(=O)O	-5.8	18
Cc1ccc(NC(=O)CSc2nnc(NC(=O)C3CCCCC3)s2)cc1	.	-5
CCN(Cc1ccccc1)C(=O)c1ccc(S(=O)(=O)N(C)C)cc1	.	-8
CCN1C(=O)CS/C1=C(\C#N)S(=O)(=O)c1ccccc1	-3.8	-24
COc1cc(/C=C2\SC(=S)N(c3cccc(C(F)(F)F)c3)C2=O)ccc1O	.	-72
Cc1oc(C(=O)O)cc1COc1ccc2c3c(c(=O)oc2c1)CCCC3	3.5	3
CCN(CC)C(=O)c1cc2c(s1)-c1ccccc1S(=O)(=O)C2	.	-3
Cc1ccc(OCCSc2nc(N)cc(N)n2)c(C(C)C)c1	4.4	14
CCOC(=O)c1c(NC(=O)C(F)(F)F)n[nH]c1N	.	-23

Some of these compounds in order of length of the SMILES, highest first.
SMILES	MgrA DNA FP	S aureus helic
COc1ccc(C2C3=C(CC(C)(C)CC3=O)Nc3nc(SCCN4CCOCC4)[nH]c(=O)c32)cc1OC (stereo not drawn)	.	37
CCOC(=O)c1c(-c2ccc(C)cc2)csc1/N=C/c1c(C)[nH]n(-c2ccccc2)c1=O	3.9	.
CC(C)N(Cc1ccc(N(C)C)cc1)S(=O)(=O)c1ccccc1[N+](=O)[O-]	-0.6	.
CCOc1ccccc1NC(=O)c1ccc(OCC(=O)N2CCOCC2)c(OC)c1	.	-5
Cc1ccc(/C=C/C(=O)Oc2ccc(-c3ccc(C#N)cc3)cc2)o1	.	5
CN(C)CCNC(=O)c1ccc2c(c1)N(Cc1ccccc1)C(=O)CS2	-0.2	5
CCN(Cc1ccccc1)C(=O)c1ccc(S(=O)(=O)N(C)C)cc1	.	-8
CCN(CC)C(=O)c1cc2c(s1)-c1ccccc1S(=O)(=O)C2	.	-3
O=C(/C=C/c1ccc(-c2cccs2)s1)Oc1ccc(Cl)cc1	0.8	.
COC(=O)c1sccc1NS(=O)(=O)c1ccc(F)cc1F	3.5	.
CCOC(=O)CCN1N=C(c2ccc(CC)cc2)CCC1=O	4.0	13
CCOC(=O)/C=C/c1ccc(-c2ccc(F)cc2)o1	-0.2	-20
CCC(Sc1nc2ncnc(N)c2[nH]1)C(=O)O (stereo not drawn)	.	-23
c1ccc(CCSc2nnc(-c3cccs3)o2)cc1	.	7
COc1ccc(CNc2ncc(C#N)cn2)cc1	-1.9	.
COC(=O)c1ccc(Br)o1	-1.4	.

Next structures:
SMILES	MgrA DNA FP	S aureus helic
Cc1cc(Cl)ccc1OCc1cn2cccnc2n1	.	11
N#C/C(=C/c1cccs1)C(N)=S	5.3	6
CN(c1ccc(C(=O)NC2CCCCC2)cc1)S(C)(=O)=O	1.9	11
CCN(Cc1ccncc1)Cn1nc(-c2ccncc2)n(CCOC)c1=S	.	3
CN(C)c1ccc(C(=O)N2CCN(c3ccccc3)CC2)cc1	0.9	19
COc1cc(C=C(C#N)C#N)ccc1OC(=O)c1ccco1	-2.6	8
Cc1nn(CC(=O)c2ccc3c(c2)OCCO3)c(=O)c(C#N)c1C	.	-7
O=C(Nc1ccc(N2C(=O)C3C4C=CC(C4)C3C2=O)cc1)Nc1ccccn1 (stereo not drawn)	.	7
c1ccc(CSc2nnc(-c3ccccc3)n2Cc2ccco2)cc1	.	8
CCOC(=O)c1cc(C)[nH]c(=O)n1	.	-4
COc1cc2ccccc2cc1C(N)=O	.	2
CN=c1scc(-c2ccc3c(c2)NC(=O)CO3)n1/N=C/c1ccc(C#N)cc1	.	-5
Cc1nn(CC(=O)NC2CCCc3ccccc32)c(=O)c2cc3sccc3n12 (stereo not drawn)	.	-14
Cc1cc(S(=O)(=O)N2CCC(c3nc4c(nnn4Cc4ccc(F)cc4)c(=O)[nH]3)CC2)ccc1-n1cnnn1	-2.5	18
N#C/C(=C\c1ccc[nH]1)c1nn(-c2ccccc2)c(-n2cccc2)c1C#N	0.5	.
CC1=C(C(N)=O)C(c2ccccc2)n2nc(-c3ccccc3)nc2N1 (stereo not drawn)	-4.3	5
CCC(C)(C(=O)NC1CCCC1)N(C(=O)c1ccccn1)c1ccc(C)cc1 (stereo not drawn)	.	-40
CCc1cc(-c2nn(CN3CCOCC3)c(C)c2-c2nc3ccccc3n2C)c(O)c(CN2CCOCC2)c1O	.	1
CC(C(=O)O)N1C(=O)/C(=C/c2ccco2)SC1=S (stereo not drawn)	38	19
Cc1nnc2n1NC(c1ccccc1)C(C(=O)NCc1ccco1)S2 (stereo not drawn)	.	-25
NN1C(=O)c2ccccc2NC1C1CC=CCC1 (stereo not drawn)	5.3	14
O=C(NCC(=O)N1CCN(Cc2ccccc2)CC1)c1ccc(Cl)c(Cl)c1	.	4
Cc1occ(-c2cc(F)ccc2Cl)c1C(=O)NC1Cc2ccccc2C1	-3.6	.
Cc1ccc(S(=O)(=O)Nc2ncccc2OCc2cc(F)cc(F)c2)cc1	-1.2	.
Cc1nn(-c2ccc(F)cc2)c(-n2cccc2)c1C(=O)NCCc1cccs1	.	17
N#Cc1ccccc1CSc1nc2ncc(Br)cc2[nH]1	.	6
CCOC(=O)c1c(C)[nH]c(C)c1S(=O)(=O)NCCc1ccccc1	.	8
COc1cc(/C=C2/SC(=S)N(Cc3ccccc3)C2=O)ccc1OCC(N)=O	.	-9
Cc1cc(N2CCCC2)ccc1NC(=O)COc1ccc(Cl)cc1	.	2
CCOc1ccc(NC(=O)C(C)NS(=O)(=O)c2ccc(C)cc2)cc1 (stereo not drawn)	-0.3	-2
Cc1ccc(S(=O)(=O)N/N=C/C(=O)O)cc1	-2.8	.
COc1cccc(C(=O)Nc2ccc(C)cc2)c1	2.9	-4
CCc1ccccc1N(C)C(=O)c1noc2c1CCCC2	.	18
Nc1nnc(CCC(=O)O)c(=O)n1N	.	-7
c1ccc2sc(SCSc3nnc4sc5ccccc5n34)nc2c1	.	-18
CCOc1cc2[nH]c(=S)n(CCCC(=O)O)c(=O)c2cc1OCC	-2.6	6
OCC1(CO)COC(COc2ccccc2)=N1	-6.3	12
O=c1n(-c2cccc(Cl)c2)c(=O)n(Cc2cccc(F)c2)n1Cc1cccc(F)c1	-0.7	5
CC(C)(CO)NC(=O)c1cc(-c2ccc(F)cc2)no1	1.6	-1
O=C(Oc1ccc2c(=O)c(Oc3ccccc3Br)coc2c1)c1ccco1	-0.2	.
O=C(/C=C/c1ccco1)Nc1ccc2oc(-c3ccccc3)nc2c1	6.0	3
CCOC(=O)c1sc2c(c1O)c(=O)n(-c1ccccc1)c(=S)n2-c1ccccc1	0.0	.
CCOC(=O)c1nn(-c2ccccc2)c2nc(Nc3ccc(C)cc3)cc(=O)n12	-1.9	.
CC(C)c1nc(=S)c2ccccc2[nH]1	1.5	7
CC(O)CNCc1ccc2c(c1)OCO2 (stereo not drawn)	2.5	12
O=C(Oc1cccc(Cl)c1Cl)c1ccncc1	.	12
Cc1ccc(NC(=O)CSc2cn(C)c3ccccc23)cc1	.	-8
CCn1c(C(=O)NC2CCCC2)cc2sc(Cl)cc21	.	19
Cc1ccc(C)c(NC(=O)COC(=O)CC2CC3CCC2C3)c1 (stereo not drawn)	3.7	-24
Cc1ccc(-c2cnc3ccccc3n2)cc1N	-0.8	-10
Going on with the list.
SMILES	MgrA DNA FP	S aureus helic
CNC(=O)c1ccc(N)cc1	-1.4	6
Cc1ccc(Nc2nc(Nc3ccc(C)cc3)nc(Sc3nncn3C)n2)cc1	.	28
Cc1cc(C)n(-c2ccc(COC(=O)Cc3n[nH]c(=O)c4ccccc34)cc2)n1	.	-3
O=C(CC1NC2CCCCC2NC1=O)Nc1cccc(C(F)(F)F)c1 (stereo not drawn)	1.5	26
O=C(COC(=O)C1CC2C=CC1C2)Nc1ncc(Cl)cc1Cl (stereo not drawn)	-0.2	-16
CC1=C/C(=N\NC(=S)Nc2cc(C)ccc2C)CC1	.	-2
O=C(Nc1ccccc1)c1cccc(S(=O)(=O)NCCC23CC4CC(CC(C4)C2)C3)c1	-0.2	10
CCOc1ccc(CCNC(=O)c2cccc3c2C(=O)N(Cc2cccnc2)C3)cc1OCC	.	16
COC(=O)c1scc2c(Oc3ccccc3)cc(C(F)(F)F)nc12	-2.8	.
CCCn1c(N)c(C(=O)COC(=O)c2c3c(nc4ccccc24)CCC3)c(=O)[nH]c1=O	.	-6

Three compounds from above, arranged by SMILES length, lowest first:
SMILES	MgrA DNA FP	S aureus helic
O=C(COC(=O)C1CC2C=CC1C2)Nc1ncc(Cl)cc1Cl (stereo not drawn)	-0.2	-16
COC(=O)c1scc2c(Oc3ccccc3)cc(C(F)(F)F)nc12	-2.8	.
Cc1cc(C)n(-c2ccc(COC(=O)Cc3n[nH]c(=O)c4ccccc34)cc2)n1	.	-3

Additional records follow.
SMILES	MgrA DNA FP	S aureus helic
COc1cc(/C=C/C(=O)Nc2ccc3nc(N4CCN(c5ncccn5)CC4)cc(C)c3c2)cc(OC)c1OC	.	-5
Cn1cccc1C(=O)Nc1nccs1	.	-4
N#CCCn1cc(/C=N/O)c(-c2ccc(Br)cc2)n1	.	-9
NNC(=O)CC1=Nn2c(nnc2-c2ccc(Cl)cc2)SC1	.	16
O=c1[nH]ccc2nc(N3CCOCC3)ncc12	.	6
c1ccc(-c2cccs2)cc1	1.0	-12
COc1ccc(-c2nc3ccc4ccccc4c3c3c2CCC3)cc1	-0.9	10
Cc1cc(C)c2nc(N3CCCC(C(=O)NC4CCCc5ccccc54)C3)sc2c1 (stereo not drawn)	2.6	8
O=C(CN1CCN(C/C=C/c2ccccc2)CC1)Nc1ccc2c(c1)OCCCO2	.	1
COCc1cc(=O)[nH]c(COc2ccc(Cl)cc2)n1	-0.5	.
O=C(CSc1nnc2n1CCCCC2)c1ccc(Cl)cc1	.	-15
CCNS(=O)(=O)c1ccc(NC(=O)c2ccc(Cn3cc(Br)cn3)o2)cc1	-1.0	2
N#Cc1cn(C2CC2)c(=O)[nH]c1=O	-2.9	.
C=CCn1c(SCc2ccc(C(=O)NCCCO)cc2)nc2sc3c(c2c1=O)CCCC3	-1.4	.
COc1ccc(C(=O)OCC(=O)NC23CC4CC(CC(C4)C2)C3)c(O)c1	.	-8
Cc1ccc2cc(CCNC(=O)C(C)(C)C)c(=O)[nH]c2c1	.	5
COc1ccc(-c2c3c(=O)n(C)c(=O)n(C)c3cn2-c2cccc(NC(C)=O)c2)cc1	-1.6	11
CCCCn1c(=O)c(C(=O)OCC)c(O)c2ccccc21	0.1	-5
COC(=O)c1cn(C(=O)OC)c2ccccc12	1.8	-10
O=C(NCCNCc1ccco1)c1ccccc1	0.1	1
CC(C)(C)C(=O)Nc1ccccc1C(=O)Nc1nccs1	1.3	5
Cc1cc(C)nc(SCc2nnc(Nc3ccc(S(N)(=O)=O)cc3)s2)n1	-1.4	3
COCCN=C1NN=C(c2cc(C)n(CCc3ccc(F)cc3)c2C)CS1	.	5
COC(=O)C(NC(=O)CC12CC3CC(CC(C3)C1)C2)C(C)C (stereo not drawn)	0.2	2
c1csc(SCc2ccc3nonc3c2)c1	-0.7	.
CS(=O)(=O)c1nsc(S(C)(=O)=O)c1C(N)=O	8.8	.
CS(=O)(=O)c1ccc(Cl)c(C(=O)OCC(=O)c2ccc3c(c2)OCO3)c1	.	-1
O=C(CSc1nnnn1C1CCCC1)Nc1nc2ccc(F)cc2s1	.	-9

This is a subset. The share of hits here may be higher or lower than overall.
